Screens as filed in PubChem BioAssay.
Methyltransferases – Primary Screen for Target Class Profiling of Small Molecule Inhibitors of Methyltransferases; purified enzyme, MTase-Glo SAH luminescence; hits give low values; calls only at 40 µM; 3.9% of 25,000 active; active = -50% or lower on at least one of six enzymes; inconclusive = the cases between; inactive = as a rule above -30% on all six;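 also: enzymes were COMT GAMT GNMT HNMT NNMT and PNMT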
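Each enzyme was assayed with SAM and its substrate. SAH formation detected by MTase-Glo luminescence; single-point 40 uM screen[…].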
Calls only; i = inactive; ? = inconclusive; + = active, no number. % is scaled to controls: 0 for no effect and ±100 for the full control effect. Not all compounds are listed; rates above refer to the full screens.

SMILES | Methyltransferases
Cc1ccc(C(=O)Cn2nc3n(CC(C)C)c(=O)c4ccc(C(=O)NC5CCCCC5)cc4n3c2=O)cc1 | i
CN1C(=O)c2cc(C(=O)NCc3cccs3)nn2CC1(C)C(=O)NC1CCCCC1 (stereo unspecified) | i
CON(C)C(=O)N1N=C(c2cc(F)ccc2F)S[C@@]1(CCCN)c1ccccc1 | i
CCCn1c(=O)c2ccc(C(=O)NC(C)CC)cc2n2c(SCC(=O)c3ccc(C)cc3)nnc12 (stereo unspecified) | i
CCOc1ccccc1CN1C(=O)c2cc3sccc3n2CC1(C)C(=O)NC1CCCC(C)C1C (stereo unspecified) | i
COc1ccc(-c2nc3c(C)cccc3cc2CN2CC[C@@H](O)C2)cc1 | i
CCCn1c(=O)c2ccc(C(=O)NC(C)C)cc2n2c(SCC(=O)c3cc(C)ccc3C)nnc12 | i
CCCn1c(=O)c2ccc(C(=O)NC(C)CC)cc2n2c(=O)n(CC(=O)Nc3ccccc3)nc12 (stereo unspecified) | i
COc1ccc(-c2ncccc2CNS(=O)(=O)c2ccc(C#N)cc2)cc1 | i
CNC(=O)c1cc(C2CC2)nc2c1c(C1CCN(C(=O)Cc3ccc(OC)cc3)CC1)nn2C | i
CN1CC(O)C(O)C(O)C1CO (stereo unspecified) | i
COc1ccc(OC)c(CCN2C(=O)c3cc4ccccc4n3CC2(C)C(=O)NCCC(C)C)c1 (stereo unspecified) | i
COc1ccc(-c2nnc3n2CCN(C(=O)c2ccc(Cl)nc2)C3)cc1 | i
CC1(C(=O)NC2CCCCC2)Cn2c(ccc2-c2ccco2)C(=O)N1Cc1ccc(F)cc1 (stereo unspecified) | i
COc1ccc(OC)c2c1cc1n2CC(C)(C(=O)NC2CCCCC2)N(Cc2ccco2)C1=O (stereo unspecified) | i
CCN(CC)CCNC(=O)CCc1nnc2n(Cc3ccc(Cl)cc3)c(=O)c3ccccc3n12 | +
COc1ccc(Cl)cc1N1C(=O)CSc2c(c3ccccc3n2C)C1C(=O)NCCCOC(C)C (stereo unspecified) | i
CCn1c(=O)n(CC)c2cc(S(=O)(=O)Nc3ccc(Br)cc3)ccc21 | i
CC1CCCCN1CCN1C(=O)c2ccc(-c3ccco3)n2CC1(C)C(=O)NC1CCCCCC1 (stereo unspecified) | i
O=C(Cc1ccccc1F)N1CC2CC(C1)[C@H]1CCCC(=O)N1C2 (stereo partly specified) | i
FC(F)(F)c1ccc(N2C3CCC2CN(Cc2ccc(-c4cccs4)cc2)C3)cc1 | i
CC1=CCC[C@@H]2[C@@](C)(CCc3ccoc3)[C@H](C(=O)O)CC[C@@]12C | i
O=C(CCCc1nnc2n3nc(-c4ccccc4)nc3c3ccccc3n12)NCc1ccccc1 | i
CCOc1ccc(CNC(=O)C(C)n2ccc3cc(S(=O)(=O)N4CCCC4)ccc32)cc1 (stereo unspecified) | i
CC1OC2OC3C(OCC(O)C3O)OC(=O)C34CCC(C)(C)CC3C3=CCC5C6(C)CC(O)C(OC7OC(CO)C(O)C(O)C7OC7OCC(OC(=O)CC(C)(O)CC(=O)OC1C(OC1OCC(O)C(O)C1O)C2O)C(O)C7O)C(C)(CO)C6CCC5(C)C3(C)CC4O (stereo unspecified) | i
O=C1CCCN1c1ccc(CN2CC(=O)N(Cc3ccccc3F)c3ccccc3S2(=O)=O)cc1 | i
O=C(COC(=O)C(Cc1c[nH]c2ccccc12)NC(=O)c1ccco1)c1ccc(Cl)cc1 (stereo unspecified) | i
C=C1C[C@]23C[C@H]1[C@@H](O)C[C@H]2[C@@]12C=C[C@H](O)[C@@](C)(C(=O)O1)[C@H]2[C@@H]3C(=O)O | i
COC(=O)[C@@H]1Cc2ncn(Cc3ccc(Cl)cc3)c2CN1S(=O)(=O)c1cccs1 | ?
Cc1cc(=O)n(CC(=O)N2CCCC(C)(c3ccccc3)C2)nc1C (stereo unspecified) | i
O=C(NCC(=O)N1CCOCC1)c1cccc(-c2ccsc2)c1 | i
COc1ccccc1OCCNC(=O)C1(C)CCCCC(=O)N1 (stereo unspecified) | i
CC1(C(=O)NC2CCCCCCC2)Cn2c(cc3sccc32)C(=O)N1Cc1ccccc1 (stereo unspecified) | i
COc1cc2c(cc1OC)CN(C(=O)/C=C/c1c(-c3ccccc3)n(C)c3ncccc13)CC2 | +
CC(C)CCNC(=O)C1(C)Cn2nc(C(=O)NC3CCCC3)cc2C(=O)N1C (stereo unspecified) | i
O=C(CCn1ccc(=O)[nH]c1=O)N[C@H](c1cccs1)C1CC(O)C1 (stereo partly specified) | i
Cc1ccc2[nH]c(=O)c(CCC(=O)NCc3ccco3)cc2c1 | i
COC(=O)c1ncn2c1C(=O)N(Cc1ccc(OC)cc1OC)C(C)(C(=O)NC1CCCC1)C2 (stereo unspecified) | i
C=CCn1c(=O)c2ccc(C(=O)NCC(C)C)cc2n2c(=O)n(CC(=O)Nc3cccc(C)c3)nc12 | i
CC[C@H](C)C(=O)O[C@H]1CCC=C2C=C[C@H](C)[C@H](CC[C@@H]3C[C@@H](O)CC(=O)O3)[C@H]21 | +
CNC(=O)c1cc(C2CC2)nc2c1c(C1CCN(C(=O)C3CCCC3)C1)nn2C (stereo unspecified) | i
CCn1ccnc1CN(C)Cc1cn(-c2ccccc2C)nc1-c1ccc(OC)c(F)c1 | i
O=c1[nH]c(=S)[nH]c(-c2ccccc2)c1Cc1c(O)ccc2ccccc12 | +
COc1ccc2cc3n(c2c1)CC(C)(C(=O)NC1CCCC1)N(CCc1ccc(SC)cc1)C3=O (stereo unspecified) | i
CC(C)CNC(=O)c1ccc2c(=O)n(CC(C)C)c3nn(Cc4ccc(F)cc4)c(=O)n3c2c1 | i
CC(C)Cn1c(=O)c2ccc(C(=O)NC(C)C)cc2n2c(=O)n(Cc3ccc(Cl)cc3)nc12 | i
COC(=O)N(C)Cc1cccc(N2CCN(C(c3ccccc3)c3ccccc3)CC2)c1 | ?
Cc1cccc(/C=N/Nc2cc(N3CCOCC3)n3nc(-c4ccncc4)cc3n2)c1 | i
CC1(C(=O)NC2CCCC2)Cn2c(cc3ccccc32)C(=O)N1Cc1cccc(F)c1 (stereo unspecified) | i
CCC(C)NC(=O)c1ccc2c(=O)n(C)c3nn(CC(=O)NC4CCCC4)c(=O)n3c2c1 (stereo unspecified) | i
C=C1C(O)C(O)C2(CC3C(C)=CCC4C(C)(CO)CCCC34C)OC2C1O (stereo unspecified) | i
O=C(c1cc(-c2ccc(F)cc2)n[nH]1)N1CCC(OCC2CC2)C1 (stereo unspecified) | i
O=S(=O)(c1ccccc1)c1nnn2c1nc(N1CCN(c3ccccn3)CC1)c1cc(Cl)ccc12 | i
CC(C)(C)c1cc2n(n1)CC(C)(C(=O)NC1CCCCCC1)N(Cc1ccc3c(c1)OCO3)C2=O (stereo unspecified) | i
CC(C)Cn1c(=O)c2ccc(C(=O)NC3CCCC3)cc2n2c(=O)n(Cc3ccc(F)cc3)nc12 | i
COc1ccc(CN2C(=O)c3cc(-c4ccc(OC)cc4)nn3CC2(C)C(=O)NCc2ccccc2OC)cc1 (stereo unspecified) | i
Cc1nc(N2CCC(C(=O)NCCC3=CCCCC3)CC2)cc(C(F)(F)F)n1 | i
CCN1C(=O)C2(CCN(S(=O)(=O)c3c(C)nn(C)c3C)CC2)c2ccccc21 | i
N[C@@H](CCC(=O)N[C@H](CSN=O)C(=O)NCC(=O)O)C(=O)O | i
Cc1noc(C)c1[S+](=O)([O-])N1CC(Oc2ccc(F)cc2F)C1 | i

An excerpt from above in order of number of heavy atoms, highest first.
SMILES | Methyltransferases
COc1ccc(CN2C(=O)c3cc(-c4ccc(OC)cc4)nn3CC2(C)C(=O)NCc2ccccc2OC)cc1 (stereo unspecified) | i
CC(C)(C)c1cc2n(n1)CC(C)(C(=O)NC1CCCCCC1)N(Cc1ccc3c(c1)OCO3)C2=O (stereo unspecified) | i
CC(C)CNC(=O)c1ccc2c(=O)n(CC(C)C)c3nn(Cc4ccc(F)cc4)c(=O)n3c2c1 | i
CC(C)Cn1c(=O)c2ccc(C(=O)NC(C)C)cc2n2c(=O)n(Cc3ccc(Cl)cc3)nc12 | i
CCC(C)NC(=O)c1ccc2c(=O)n(C)c3nn(CC(=O)NC4CCCC4)c(=O)n3c2c1 (stereo unspecified) | i
Cc1cccc(/C=N/Nc2cc(N3CCOCC3)n3nc(-c4ccncc4)cc3n2)c1 | i
CCN1C(=O)C2(CCN(S(=O)(=O)c3c(C)nn(C)c3C)CC2)c2ccccc21 | i
C=C1C(O)C(O)C2(CC3C(C)=CCC4C(C)(CO)CCCC34C)OC2C1O (stereo unspecified) | i
O=C(c1cc(-c2ccc(F)cc2)n[nH]1)N1CCC(OCC2CC2)C1 (stereo unspecified) | i
Cc1noc(C)c1[S+](=O)([O-])N1CC(Oc2ccc(F)cc2F)C1 | i
N[C@@H](CCC(=O)N[C@H](CSN=O)C(=O)NCC(=O)O)C(=O)O | i

More compounds:
SMILES | Methyltransferases
COC1=Cc2c(nc3n(c2=O)C(C)C(=O)NC3(O)C(C)C)OC=C1 (stereo unspecified) | i
CC(C)n1cnc2cc(CNC(=O)c3cccnc3)ccc21 | i
O[C@@H]1C[C@@H](c2nc(Cc3ccc(F)cc3Cl)no2)N(Cc2ccco2)C1 | i
C=C1C(=O)O[C@H]2/C=C(/C)[C@@H](OC(C)=O)C/C=C(\C)C[C@@H](OC(=O)/C(=C/C)COC(=O)/C(=C/C)CO)[C@@H]12 | i
CC(=O)O[C@]1(C(C)=O)CC[C@H]2[C@@H]3CCC4=CC(=O)CCC4=C3[C@@H](c3ccc(N(C)C)cc3)C[C@@]21C | ?
Cc1ccccc1CCNC(=O)CCn1ccc2cc(S(=O)(=O)N3CCCC3)ccc21 | i
O=c1c2ccccc2n2c(SCc3ccc(F)cc3)nnc2n1Cc1ccccc1 | i
CS(=O)(=O)c1ccc([C@H](CC2CCCC2)C(=O)Nc2nccs2)cc1 | i
CC1(C(=O)NCc2ccccc2)Cn2nc(-c3ccccc3)cc2C(=O)N1CCCc1ccccc1 (stereo unspecified) | i
NC(=O)C1(N2CCCCC2)CCN(c2nccc(-c3ccncc3)n2)CC1 | i
CC1(C(=O)NCc2ccc(F)cc2)Cn2cnc(C(=O)NCCc3ccc(Cl)cc3)c2C(=O)N1C1CC1 (stereo unspecified) | i
Cc1ccc(-c2nnn3c2nc(N2CCC(C)CC2)c2ccccc23)cc1 | i
Cc1nc2ccc(Oc3ccc(F)cc3)cc2c(=O)n1C[C@H]1CCCN(C(C)C)C1 | i
CC(=O)OC(C)C[N+](C)(C)C (stereo unspecified) | i
CC(=O)Nc1c2n(c3ccc(F)cc13)CC(C)(C(=O)NCCC(C)C)N(C1CCCCCC1)C2=O (stereo unspecified) | i

Quoted from the entries so far for reference:
SMILES | Methyltransferases
CC(C)n1cnc2cc(CNC(=O)c3cccnc3)ccc21 | i
O[C@@H]1C[C@@H](c2nc(Cc3ccc(F)cc3Cl)no2)N(Cc2ccco2)C1 | i

The listing continues:
SMILES | Methyltransferases
Cc1cc2c(cc3n2CC(C)(C(=O)NC2CCCCC2)N(CCc2ccccc2)C3=O)o1 (stereo unspecified) | i
CS(=O)(=O)N(C1CCOCC1)C1CN(S(=O)(=O)c2ccccc2)C1 | i
C=C(C)C1CCC2(C(=O)O[C@@H]3O[C@H](CO[C@@H]4O[C@H](CO)[C@@H](O)[C@H](O)[C@H]4O)[C@@H](O)[C@H](O[C@@H]4O[C@@H](C)[C@H](O)[C@@H](O)[C@H]4O)[C@H]3O)CCC3(C(=O)O)C(CCC4C5(C)CCC(O)C(C)(C)C5CCC43C)C12 (stereo partly specified) | i
CCCCCCCCCCCCCCCCCC(=O)OC(CC(=O)O)C[N+](C)(C)C (stereo unspecified) | i
O=C(CCc1nnc2n(CCc3ccccc3)c(=O)c3ccccc3n12)N1CCN(Cc2ccccc2)CC1 | i
CCOc1ccc(CN2CCCC(CCC(=O)Nc3ccccc3F)C2)cc1CO (stereo unspecified) | i
Cc1ccc(Cn2c(=O)c3ccccc3n3c(=O)n(Cc4ccc(Cl)cc4)nc23)cc1 | i
O=C(c1ccncc1)N1CCCC(CN2CCCC2)CC1 (stereo unspecified) | i
COCCN1Cc2nc(-c3ccsc3)ccc2OCC1=O | i
O=c1n(-c2ccncc2)nc2n1CCN(Cc1ccsc1)C2 | i
CCCn1c(=O)c2ccc(C(=O)NC(C)CC)cc2n2c(=O)n(Cc3ccccc3)nc12 (stereo unspecified) | i
O=C1CCN(C(=O)[C@@H]2CCCN2C(=O)Nc2ccccc2)CCCCCCN1 | i
CN1C(=O)c2cc(C(=O)NCc3cccc(F)c3)nn2CC1(C)C(=O)NC1CCCCC1 (stereo unspecified) | i
Cc1ncc(C(=O)N2CCC3(CC(=O)NC3=O)C2)c(-c2ccccc2)n1 (stereo unspecified) | i
CN(Cc1ccc(OC(F)(F)F)cc1)Cc1cccc(C(F)(F)F)c1 | i
CC1CCCC(NC(=O)C2(C)Cn3c(ccc3-c3ccco3)C(=O)N2Cc2cccs2)C1C (stereo unspecified) | i
Cc1cc(Nc2cc(CN3CCOCC3)c3nc(C)c(Cc4ccc(Cl)cc4F)n3n2)n[nH]1 | +
CC1CCCC(NC(=O)C2(C)Cn3c(cc4sccc43)C(=O)N2CCCc2ccccc2)C1C (stereo unspecified) | i
COc1cc(OC)c(NS(=O)(=O)c2ccc3c(c2)n(C)c(=O)n3C)cc1Cl | i
CCOc1ccc(CCN2C(=O)c3c(C(=O)OC)ncn3CC2(C)C(=O)NC2CCCCC2)cc1 (stereo unspecified) | i
CC(C)OCCCNC(=O)c1cc2n(n1)CC(C)(C(=O)NC1CCCCC1)N(C)C2=O (stereo unspecified) | i
O=C(COC(=O)C(Cc1c[nH]c2ccccc12)NC(=O)c1ccc(Cl)cc1)c1ccccc1 (stereo unspecified) | i
COCCCNc1nc2c(S(=O)(=O)c3ccc(C(C)C)cc3)nnn2c2ccccc12 | i
O=C(NCc1ccc(F)cc1)[C@@H]1C[C@H](c2ccc(F)cc2)N([S+](=O)([O-])C2CC2)C1 | i
COc1ccccc1CN1C(=O)c2cc3occc3n2CC1(C)C(=O)NC1CCCCC1C (stereo unspecified) | i
CCN(CC1CCCN(CCc2cccc(OC)c2)C1)C(=O)CSC (stereo unspecified) | i
